Assay outcomes (PubChem BioAssay)
E coli growth – E. coli growth inhibition, primary screen, OD600; Escherichia coli growth, 23 h; active compounds read low; OD600 absorbance (concentration not given with the values); AID 1053175, 2014; hit rate 0.21% among 330,000;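 active = OD600 absorbance below the run mean of sample wells minus 3.6 SD, in any replicate, cut at about 0.56 in these data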;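 also: stock transfer was 300 nL into about 60 µL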
ALR H2O2 inh – inhibitors of human ALR sulfhydryl oxidase, primary screen, biochemical, H2O2 detection, HRP-luminol luminescence, single point; AID 485317, 2010; hit rate 3.8% among 290,000; purified ALR, DTT oxidation; FAD-linked sulfhydryl oxidase ALR (Homo sapiens), P55789; inhibition, % (test concentration not listed);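 active = mean and each replicate at 75% or more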;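 also: stock transfer was 7.5 nL into about 7.5 µL; 0% = neutral wells and 100% = wells with inactivated enzyme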
Target sequence (P55789 whole entry, looked up): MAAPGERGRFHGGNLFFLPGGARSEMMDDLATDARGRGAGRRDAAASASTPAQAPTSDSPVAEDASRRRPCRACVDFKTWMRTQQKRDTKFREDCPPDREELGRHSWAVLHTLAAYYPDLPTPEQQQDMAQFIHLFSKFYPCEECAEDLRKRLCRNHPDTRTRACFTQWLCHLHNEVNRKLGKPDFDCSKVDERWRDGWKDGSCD
Beta2AR agonist – beta2AR agonists driving receptor internalization, primary screen, cell-based, FAP fluorogen, flow cytometry. response, % (concentration not given with the values). Am2.2-beta2AR cells; reference of the scale not given here. hit rate 0.43% among 340,000;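 active = response above a set limit, near 3 SD of response in nonfluorescent compounds, cut at about 42% in these data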;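 also: stock transfer was 100 nL into about 11 µL; a reference agonist was the positive control; negative values mostly stem from fluorescent compounds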
HNF4A DNA FP – change in binding of human HNF4A to DNA, primary screen, biochemical, fluorescence polarization, FITC-DNA. Hepatocyte nuclear factor 4-alpha (Homo sapiens), P41235. 1 h. activity change, % at 10 µM. hit rate 0.3% among 360,000. AID 1224865, 2016; in the data active = activity change above about 30%, passing the limit was not always enough;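 also: controls were the assay level and a saturating level of protein; the project sought stronger binding though the title names inhibitors; some compounds called inactive have numbers as strong as hits; positive values seem to mean higher polarization but the record does not say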
Target sequence (P41235 whole entry, looked up): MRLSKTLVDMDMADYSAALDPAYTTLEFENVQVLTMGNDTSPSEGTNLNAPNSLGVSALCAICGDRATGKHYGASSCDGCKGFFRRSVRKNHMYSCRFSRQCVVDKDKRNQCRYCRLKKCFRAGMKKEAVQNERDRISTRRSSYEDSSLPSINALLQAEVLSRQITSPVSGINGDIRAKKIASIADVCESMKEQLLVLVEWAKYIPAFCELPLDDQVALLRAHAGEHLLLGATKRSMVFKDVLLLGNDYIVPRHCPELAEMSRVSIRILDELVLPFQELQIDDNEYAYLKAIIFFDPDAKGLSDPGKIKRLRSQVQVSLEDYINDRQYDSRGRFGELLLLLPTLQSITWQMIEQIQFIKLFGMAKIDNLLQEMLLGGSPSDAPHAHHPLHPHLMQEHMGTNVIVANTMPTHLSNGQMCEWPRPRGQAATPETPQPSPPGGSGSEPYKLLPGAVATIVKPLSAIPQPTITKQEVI
Ecoli rRNA inh – reduced GFP signal of wild-type E. coli, primary screen, bacterial rRNA inhibitor project, GFP/RFP fluorescence, OD600, single point; E. coli WT GFP vs humanized-ribosome RFP mutants, 24 h; active compounds read low; DMSO median 0, no signal -100; GFP signal change (wild-type ribosome), % (concentration not given with the values); hit rate 1.6% among 350,000; AID 720706, 2013;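 active = significant combined selectivity score with lowered wild-type GFP, culture density cut under 30%, mutant RFP and density less affected; inactive = any of these conditions unmet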; also: one replicate is shown; some compounds called inactive have numbers as strong as hits
UCH37 DUB inh – inhibitors of human UCH37 deubiquitinase, primary screen, biochemical, Ub-AMC cleavage, fluorescence. purified proteasome/UCH37. Ubiquitin carboxyl-terminal hydrolase isozyme L5 (Homo sapiens), Q9Y5K5. hit rate 0.33% among 330,000. inhibition, % (no concentration beside the values);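 active = mean of two replicates above 20%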;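 also: 0% = compound-free wells with enzyme and 100% = wells lacking proteasome; stock transfer was 100 nL into about 20 µL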
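Signal – fluorescence, ex 355 nm, em 460 nm · System – Proteasome-bound UCH37 · Input – 0.15 nM proteasome as dispensed · Timing – 30 min preincubation with enzyme, 25 min cleavage at room temperature · Read-out basis – percent inhibition of cleavage signal versus uninhibited and no-proteasome wells · Medium – Tris-HCl pH 7.4 with ATP-MgCl2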
FGF22 binding – binders of human FGF22 protein, primary screen, FGF22 synaptogenesis inhibitor project, biophysical, thermal shift, single point | hit rate 1.5% among 340,000 | calls only at 9.99 µM | Fibroblast growth factor 22 (Homo sapiens), Q9HCT0 | recombinant FGF22 thermal shift, SYPRO orange fluorescence; percent of sucrose octasulfate shift, DMSO zero | AID 651658, 2012;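 active = melting point raised past a set limit in the mean and every replicate; three in four hits are not shown here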
Target sequence (Q9HCT0 whole entry, looked up): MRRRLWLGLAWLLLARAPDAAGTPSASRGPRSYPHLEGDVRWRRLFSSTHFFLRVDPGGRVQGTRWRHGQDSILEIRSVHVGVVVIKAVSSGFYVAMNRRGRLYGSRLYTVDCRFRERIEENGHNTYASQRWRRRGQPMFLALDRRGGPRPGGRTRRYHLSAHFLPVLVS
Ecoli rRNA inh OD600 – further read-out of Ecoli rRNA inh, marked with its call; OD600 change, %; measured here: OD600 growth;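 optical density of the mix in the first replicate; 0 = DMSO median and -100 = no signal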
Ecoli rRNA inh RFP – also measured in Ecoli rRNA inh; calls as there; RFP signal change, %; measured here: RFP humanized mutant strains;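 first replicate; 0 = DMSO median and -100 = no signal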
The depositor's hits bear a star; i = inactive; . = no result given; & = joins results of further samples.

SMILES | E coli growth | ALR H2O2 inh | Beta2AR agonist | HNF4A DNA FP | Ecoli rRNA inh | Ecoli rRNA inh OD600 | Ecoli rRNA inh RFP | UCH37 DUB inh | FGF22 binding
CC(=O)c1ccc(N2CCN(C(=O)c3ccc4c(c3)OCO4)CC2)cc1 | 0.624 | 2.9 | 1.5 | 2.1 | -3.1 | -12.4 | -0.2 | 2.4 | i
COc1ccc(S(=O)(=O)N2CCOCC2)cc1NC(=O)CC1CCCC1 | 0.67 | -3.7 | -4.4 | 0.4 | 9.4 | 12.9 | 0.2 | -0.9 | i
CC1CCCCN1C(=O)Cn1cnc2c1c(=O)n(C)c(=O)n2C (stereo not drawn) | 0.685 | -16.4 | 2.3 | 1.0 | 1.2 | 1.0 | -0.8 | -2.2 | i
CCCNC1CCS(=O)(=O)C1 (stereo not drawn) | 0.738 | -3.0 | -6.3 | 8.3 | . | . | . | 0.7 | .
Cc1n[nH]c(=O)c2c(NC(=O)CSc3nc4ccccc4c(=O)n3CCCOC(C)C)oc(C)c12 | . | 3.2 | 0.1 | 3.5 | 14.7 | 8.1 | 0.7 | . | i
NC(=O)c1ccc(C(F)(F)F)n(Cc2cccc(Cl)c2)c1=O | 0.692 | 0.9 | -3.3 | 2.3 | . | . | . | 3.3 | .
Cc1ccccc1CNC(=O)CN(c1ccccc1Cl)S(C)(=O)=O | 0.616 | -11.1 | -0.3 | 4.4 | -3.3 | -6.7 | -5.0 | 2.0 | i
COc1ccc(N(CC(=O)NCc2cccnc2)S(=O)(=O)c2ccccc2)c(OC)c1 | 0.728 | -0.5 | -7.2 | 4.3 | -3.3 | -7.7 | -0.8 | 2.2 | i
CCCCN(CCCC)CCNC(=O)CN1C(=O)CSc2ccc(S(=O)(=O)N3CCOCC3)cc21 | 0.697 | -1.1 | -2.2 | 1.6 | 3.6 | 8.9 | -4.0 | 4.0 | i
CC(OC(=O)c1cc(S(=O)(=O)N(C)c2ccccc2)ccc1Cl)C(=O)Nc1ccc2c(c1)OCCO2 (stereo not drawn) | 0.751 | -1.2 | 5.0 | -2.3 | . | . | . | 7.0 | .
O=C(N1CCCC1)C(F)(F)Oc1ccc(F)cc1 | 0.699 | 6.7 | 4.7 | -0.4 | 14.9 | 8.8 | 1.5 | 2.9 | i
CCc1nnc(NC(=O)c2cc(-c3ccccn3)nc3ccccc23)s1 | 0.634 | -0.9 | -15.3 | 3.0 | -4.8 | -2.4 | -3.5 | 1.7 | i
CC(C)Oc1ccc(/C=C(/NC(=O)c2ccccc2)C(=O)NCCC(=O)O)cc1 | 0.69 | -18.8 | -1.1 | -1.5 | 8.6 | 7.1 | 0.2 | 1.1 | i
CCn1c(=N)n(CC(O)COc2cccc(C)c2)c2ccccc21 (stereo not drawn) | 0.698 | 5.6 | 7.9 | -1.4 | . | . | . | 5.1 | .
Cc1ccc(S(=O)(=O)N2CCOC2CNC(=O)C(=O)NCC(C)C)cc1 (stereo not drawn) | 0.69 | -8.9 | 6.5 | 2.1 | -4.8 | 5.5 | -0.5 | -1.2 | i
Cc1cc(C)n(S(=O)(=O)c2cc(Cl)ccc2Cl)n1 | 0.689 | 2.0 | -3.2 | 1.7 | . | . | . | 0.8 | .
O=C(NCCC1=CCCCC1)c1[nH]c(C(F)(F)F)nc1-c1ccccc1 | . | . | . | 1.2 | -16.4 | -32.2 | -2.4 | . | i
CCC(=O)Nc1cccc(C(=O)OC)c1 | 0.679 | 0.3 | 5.0 | -0.6 | 1.8 | 7.7 | -1.5 | -3.8 | i
Cc1cccc(C(=O)Nc2ccc(C(=O)N/N=C/c3cccc(C)n3)cc2)c1 | . | . | 2.6 | -2.4 | -10.9 | -6.2 | 1.2 | . | i
CCN1CCN(c2ccc(S(=O)(=O)N3CCOCC3)cc2NC(=O)COc2ccc(F)cc2Cl)CC1 | 0.681 | 6.3 | -9.1 | -0.9 | 1.8 | -5.7 | 3.5 | 2.7 | i

Entries of single compounds from above:
CC(C)Oc1ccc(/C=C(/NC(=O)c2ccccc2)C(=O)NCCC(=O)O)cc1 across the screens: E coli growth = 0.69; ALR H2O2 inh = -18.8; Beta2AR agonist = -1.1; HNF4A DNA FP = -1.5; Ecoli rRNA inh = 8.6; Ecoli rRNA inh OD600 = 7.1; Ecoli rRNA inh RFP = 0.2; UCH37 DUB inh = 1.1; FGF22 binding = i
Cc1cccc(C(=O)Nc2ccc(C(=O)N/N=C/c3cccc(C)n3)cc2)c1 across the screens: E coli growth = .; ALR H2O2 inh = .; Beta2AR agonist = 2.6; HNF4A DNA FP = -2.4; Ecoli rRNA inh = -10.9; Ecoli rRNA inh OD600 = -6.2; Ecoli rRNA inh RFP = 1.2; UCH37 DUB inh = .; FGF22 binding = i

(continued)
SMILES | E coli growth | ALR H2O2 inh | Beta2AR agonist | HNF4A DNA FP | Ecoli rRNA inh | Ecoli rRNA inh OD600 | Ecoli rRNA inh RFP | UCH37 DUB inh | FGF22 binding
CC(=O)N1CCn2c3ccc(C)cc3c3cccc1c32 | 0.663 | . | 4.6 | -1.9 | . | . | . | 0.2 | .
O=C(COc1ccc(Br)cc1)NCCCNC(=O)c1ccncc1 | 0.679 | 7.3 | 1.5 | -1.7 | 8.9 | 12.2 | 3.1 | 0.0 | i
COc1ccc(-c2c(C#Cc3ccccc3)c3ccccc3n2C)cc1 | . | -4.2 | -0.8 | 2.4 | 3.8 | 2.0 | -4.3 | -33.9 | i
O=C(CCc1ccccc1)Nc1ccc(F)c([N+](=O)[O-])c1 | 0.642 | -6.9 | -0.3 | 3.4 | -13.3 | 2.7 | -6.3 | 1.8 | i
O=C(O)CSc1nc(-c2ccccc2)c(-c2ccccc2)[nH]1 | 0.65 | . | 3.4 | -3.2 | -1.3 | -7.3 | -9.4 | -9.2 | i
O=C(CN1C(=O)C2C3C=CC(C4CC34)C2C1=O)NCc1ccco1 (stereo not drawn) | 0.649 | 10.1 | 0.6 | -2.7 | 15.3 | 8.8 | 1.4 | 2.8 | i
Cc1noc(C)c1NC(=O)Nc1ccc2c(c1)C(=O)N([C@H](C)CO)C[C@H](C)[C@@H](CN(C)S(=O)(=O)c1cn(C)cn1)O2 | 0.728 | -2.5 | -0.6 | 3.5 | 0.0&4.7 | 7.8&10.8 | -1.7&-1.4 | -1.5 | i
O=C(Nc1ccccc1F)Nc1ccc([N+](=O)[O-])cc1Cl | 0.681 | -0.9 | 3.5 | -0.8 | 3.2 | 3.8 | -0.7 | 3.2 | i
CC(C)CN(CCNC(=O)CN1N=C(c2ccc(Cl)cc2)CCC1=O)CC(C)C | 0.664 | -8.5 | 6.7 | -0.9 | 8.8 | 8.4 | -0.3 | 4.2 | i
CCOC(=O)C(=CNc1ccc(C)cc1C)C(=O)OCC | 0.693 | 4.1 | -22.6 | -2.0 | . | . | . | -1.0 | .
CCn1c(C(=O)NCc2ccccn2)cc2sccc21 | 0.725 | -21.8 | -3.3 | 0.8 | . | . | . | 0.5 | .
O=C(Cn1ccc2ccccc2c1=O)NCC(=O)N1CCN(c2ccccc2F)CC1 | 0.663 | -25.8 | -4.0 | -1.9 | 4.4 | 0.2 | 0.6 | 2.9 | i
O=C(NCCCN1CCc2ccccc2C1)Nc1ccc(Cl)cc1 | 0.603 | 3.2 | 0.4 | -1.1 | . | . | . | 0.8 | .
Cc1cccc(OCC(=O)NC(=S)Nc2ccccc2N2CCOCC2)c1 | 0.704 | 3.0 | 3.5 | 0.5 | -22.8* | -9.7* | 1.8* | 2.3 | i
Cc1cccc(NC(=O)/C(=C\c2ccco2)NC(=O)c2cccs2)c1 | 0.734 | 15.5 | -3.2 | 13.6 | . | . | . | 6.8 | .
Cc1nc(-c2ccc(Cl)cc2)sc1C(=O)O | 0.698 | 0.0 | -1.4 | 0.9 | -10.9 | -7.2 | -5.0 | 1.0 | i
CN(C)CCCN(Cc1ccccc1)C(=S)Nc1ccc(OC(F)F)cc1 | 0.712 | -19.4 | 1.1 | 1.6 | . | . | . | 1.8 | .
Cc1cc(=O)n2nc(N3CCCC(C(=O)NC(C)c4ccccc4)C3)sc2n1 (stereo not drawn) | 0.71 | -13.3 | -2.9 | -0.9 | . | . | . | 4.9 | .
CC1CCN(c2ccccc2NC(=O)c2ccc([N+](=O)[O-])o2)CC1 | 0.696 | . | -9.2 | 2.3 | 0.4 | -0.1 | -0.1 | 0.2 | i
Cc1cc(N2CCC(C)CC2)nc(NCc2ccccc2)n1 | 0.633 | -50.9 | -2.0 | 2.9 | . | . | . | 2.7 | i
O=C(N/N=C/c1ccc(O)c(O)c1)C1c2ccccc2Oc2ccccc21 | . | 99.0* | 9.9 | -0.8 | . | . | . | . | .
Cc1ccc(C(=O)CN2/C(=C(\O)c3ccccc3)C(=O)c3ccccc3S2(=O)=O)c(C)c1 | 0.612 | 6.8 | -5.9 | 4.8 | . | . | . | 2.1 | .
COc1cc(C#Cc2c(C=O)n(C)c3ccccc23)cc(OC)c1 | . | -16.6 | 4.3 | 7.8 | 7.4 | 5.8 | 2.8 | -43.2 | i
CC1(C)C2CC=C(/C=N/n3cnnc3)C1C2 (stereo not drawn) | . | -1.1 | -12.5 | 0.8 | . | . | . | . | .
O=C(C1CCCN(S(=O)(=O)c2ccccc2)C1)N1CCCCCC1 (stereo not drawn) | 0.68 | 4.5 | 7.6 | -2.7 | . | . | . | 3.5 | .
NNS(=O)(=O)c1ccc(N2CCCC2=O)c([N+](=O)[O-])c1 | 0.668 | -2.7 | -1.4 | -0.3 | 13.0 | 5.2 | 14.1 | 7.2 | i
CN(C(=O)c1cccc(NC(=O)Cc2ccc(NC(=O)C3CCN(C(=O)C4CCCC4)CC3)cc2)c1)C1CCCC1 | 0.706 | . | -3.2 | -0.4 | 1.9 | 5.5 | 0.6 | 3.9 | .
O=C(NCc1ccc(F)cc1Cl)C1CC(=O)N(C2CCCCCCC2)C1 (stereo not drawn) | 0.691 | -33.2 | -0.1 | -1.5 | -18.4 | -36.2 | 10.4 | -1.6 | i
N#Cc1ccccc1S(=O)(=O)N1CCN(c2cnccn2)CC1 | . | -4.5 | 1.4 | -2.1 | 7.9 | 6.5 | -2.0 | . | i
CC(=O)c1ccc(NC(=O)c2cc3ccccc3o2)cc1 | 0.686 | -1.2 | -1.0 | 0.9 | 11.8 | 14.0 | 2.4 | 4.7 | i
CC1(C(=O)NS(=O)(=O)c2ccccc2Cl)CCN1C(=O)COc1ccc(Cl)cc1 (stereo not drawn) | . | . | . | 4.7 | -10.8 | -11.3 | -3.0 | . | i
CCCNc1nc2ccccc2n2c(C)nnc12 | 0.673 | 0.2 | -20.7 | 0.8 | 3.7 | 9.2 | -1.3 | 1.4 | i
COc1ccc(-c2csc(Nc3cccnc3)n2)cc1OC | 0.688 | 19.6 | 20.4 | -2.7 | . | . | . | 3.6 | .
O=S(=O)(c1ccc(-c2nnc(SCc3ccccc3)o2)cc1)N1CCCC1 | 0.709 | -14.2 | -8.5 | -3.4 | . | . | . | 0.7 | .
COCCNC(=O)CN(C(=O)CCC(=O)Nc1ccccn1)c1ccc(F)cc1 | 0.707 | -14.9 | -4.2 | -1.6 | . | . | . | -1.6 | .
CC(=O)c1ccc(N2CCN(C(=O)C3CCN(S(=O)(=O)c4ccc5c(c4)CC(C)N5C(=O)C4CC4)CC3)CC2)cc1 (stereo not drawn) | 0.68 | -3.3 | 6.0 | -4.0 | -1.3 | -10.6 | 4.3 | -27.6 | i

The list is partial. The share of hits here may be higher or lower than overall.
